Compound activity as filed in PubChem.
T cruzi repl: inhibitors of intracellular T. cruzi growth, primary screen, luminescence, NIH3T3 host cells | T. cruzi beta-gal in NIH3T3, 90 h | inhibition, % (no concentration beside the values) | 1.4% of 300,000 active;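 active = mean inhibition across valid replicates above about 55%, limit read from the data; inconclusive = mean below that limit but half or more replicates reach it; inactive = mean below it, under half of replicates reach it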;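 note: signal also drops with host cell toxicity which is not excluded here; 0% = plate median of DMSO wells and 100% = zero luminescence signal; higher percent means less beta-gal luminescence so fewer parasites; stock transfer was 50 nL into about 50 µL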
Calb FLC: C. albicans growth inhibition with fluconazole, primary screen, CaCi-2 strain, Alamar Blue fluorescence; C. albicans CaCi-2 (fluconazole-resistant clinical isolate) + fluconazole, 48 h; 0.57% of 300,000 active; AID 1979, 2009; growth inhibition, % (no concentration beside the values);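 active = most replicates above 75%; inconclusive = exactly half above 75%; inactive = most below 75%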;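 note: all wells also contain fluconazole at 8 µg/ml as a sub-toxic cotreatment; 0% = median of DMSO wells and 100% = median of geldanamycin control wells; wells of about 8 µL received 7.5 nL stock; the first replicate is given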
Beta2AR agonist: beta2AR agonists driving receptor internalization, primary screen, cell-based, FAP fluorogen, flow cytometry | Am2.2-beta2AR cells; reference of the scale not given here | response, % (test concentration not listed) | 0.43% of 340,000 active;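 active = response above a set limit, near 3 SD of response in nonfluorescent compounds, cut at about 42% in these data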;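 note: stock transfer was 100 nL into about 11 µL; a reference agonist was the positive control; negative values mostly stem from fluorescent compounds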
Target sequence (P07550 whole entry, looked up): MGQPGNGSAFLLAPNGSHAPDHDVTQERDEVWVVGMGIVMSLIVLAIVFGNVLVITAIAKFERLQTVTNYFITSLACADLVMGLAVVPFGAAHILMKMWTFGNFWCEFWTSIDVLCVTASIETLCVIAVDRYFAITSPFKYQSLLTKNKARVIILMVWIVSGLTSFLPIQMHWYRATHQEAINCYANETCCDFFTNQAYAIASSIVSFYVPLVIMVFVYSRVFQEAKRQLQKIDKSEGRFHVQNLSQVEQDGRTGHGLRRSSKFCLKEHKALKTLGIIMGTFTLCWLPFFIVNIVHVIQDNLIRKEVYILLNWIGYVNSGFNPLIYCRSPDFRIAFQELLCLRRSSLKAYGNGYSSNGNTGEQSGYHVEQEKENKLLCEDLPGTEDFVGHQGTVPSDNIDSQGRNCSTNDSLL
A1 inh: caspase 3/7 activation in MEF A1-2A-BIM cells, primary screen, A1 inhibitor project, cell-based, luminescence, HTS; 0.066% of 330,000 active; Caspase-Glo 3/7 luminescence, 3 h; percent of clofoctol response, vehicle zero; AID 2462, 2010; caspase activation, % (test concentration not listed);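 active = over half of replicate activation scores above 10%, or exactly half above 10 with the replicate mean above 10; inconclusive = replicate mean below 10 yet half the replicates above 10; inactive = over half of replicates below 10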;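 note: wells of about 30 µL received 50 nL stock; many hits fall short of the cut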
UCH37 inh: inhibitors of human UCH37 deubiquitinase, primary screen, biochemical, Ub-AMC cleavage, fluorescence; inhibition, % (concentration not given with the values); Ubiquitin carboxyl-terminal hydrolase isozyme L5 (Homo sapiens), Q9Y5K5; 0.33% of 330,000 active; purified proteasome/UCH37; AID 588478, 2011;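 active = mean of two replicates above 20%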;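 note: 0% = compound-free wells with enzyme and 100% = wells lacking proteasome; stock transfer was 100 nL into about 20 µL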
Target sequence (Q9Y5K5 whole entry, looked up): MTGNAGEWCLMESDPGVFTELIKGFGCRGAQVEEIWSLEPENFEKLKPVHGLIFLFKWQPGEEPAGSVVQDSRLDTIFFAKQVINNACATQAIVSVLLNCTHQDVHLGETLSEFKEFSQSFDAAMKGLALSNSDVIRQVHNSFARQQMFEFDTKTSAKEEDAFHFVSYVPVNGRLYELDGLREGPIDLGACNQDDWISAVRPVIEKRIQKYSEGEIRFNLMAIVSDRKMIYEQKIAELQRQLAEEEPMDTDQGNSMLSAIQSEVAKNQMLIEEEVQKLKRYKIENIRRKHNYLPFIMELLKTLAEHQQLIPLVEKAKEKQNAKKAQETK
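Material: human UCH37 enzyme supplied as purified proteasome complex / Amount: 0.15 nM proteasome as dispensed / Buffer or medium: pH 7.4 Tris-HCl (50 mM) with ovalbumin, ATP-MgCl2, DTT / Times: preincubation 30 min, reaction 25 min, room temperature / Technique: AMC fluorescence from Ub-AMC cleavage, excitation 355 nm, emission 460 nm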
LANA-H2B inh: blockers of LANA interaction with H2A/H2B – biochemical, FP readout, HTS, primary screen; Protein LANA1 (Human herpesvirus 8 type P (isolate GK18)), Q9QR71; cell-free LANA-H2A/H2B peptide, fluorescence polarization; inhibition, % (no concentration beside the values); 0.6% of 320,000 active; AID 2629, 2010; in the data active = inhibition mostly above about 10%, no sharp cut-off; inactive = mostly below about 6.7%;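 note: stock transfer was 7.5 nL into about 10 µL; 0% = median of vehicle wells and 100% = median of positive control wells; one replicate is shown; the record names a cut of 25% in any replicate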
Beta cell apopt: inhibitors of cytokine-induced beta cell apoptosis, primary screen, luminescence; INS-1E cytokine-induced death, ATP luminescence, 48 h; percent of positive-control rescue, neutral wells zero; protection from apoptosis, % (concentration not given with the values); 0.8% of 300,000 active; AID 435005, 2010;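 active = all replicates at 75% or more, or half of them and the mean; inconclusive = half reach 75% but not the mean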;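 note: 0% = cytokine-treated negative control wells and 100% = positive control rescue; higher means more ATP so stronger rescue from cytokine killing; wells of about 40 µL received 100 nL stock; the first replicate is given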
RanGTP-Imp inh: inhibitors of RanGTP-importin-beta interaction, primary screen, biochemical, FRET, CFP-Ran, YFP-importin-beta, homogeneous; 1.1% of 300,000 active; Ran GTPase (GTP-bound) - importin-beta complex; AID 2216, 2009; inhibition, % (no concentration beside the values); cell-free CFP-Ran/YFP-importin-beta FRET ratio;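 active = most replicates above 15%; inconclusive = exactly half above 15%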;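 note: 0% = DMSO wells and 100% = Ran loaded with GDP instead of GTP; wells of about 40 µL received 100 nL stock; the first replicate is given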
The depositor's hits bear a star; i = inactive; ? = inconclusive; . = no result given.

SMILES	T cruzi repl	Calb FLC	Beta2AR agonist	A1 inh	UCH37 inh	LANA-H2B inh	Beta cell apopt	RanGTP-Imp inh
CCCc1n[nH]c2c1/C(=N\OCC)CC(C)(C)C2	-4.5	27.3	1.7	-1.1	.	-2.4	-4.0	-1.8
CCC(=O)N1CCc2cc(S(=O)(=O)NCCCOC)ccc21	-14.9	0.1	-3.9	0.3	-0.1	-0.7	-3.2	1.2
Cc1ccccc1NC(=O)c1cccc(S(=O)(=O)N2CCOCC2)c1	3.0	0.7	7.1	-0.5	1.0	-6.2	-4.4	-3.2
CCN(C(=O)CSc1n[nH]c(-c2ccccc2)n1)c1c(N)n(Cc2ccccc2)c(=O)[nH]c1=O	.	.	-9.6	0.9	1.6	-3.5	-3.2	.
COc1ccc(C(CNC(=S)NCc2ccccc2)N2CCCC2)cc1 (stereo not given)	-5.8	4.3	-12.3	2.0	0.4	-3.7	-2.0	-0.5
CCN(C(=O)CSc1nnc(Cc2cccc3ccccc23)n1N)C1CCS(=O)(=O)C1 (stereo not given)	-2.3	-4.0	1.1	0.4	3.0	-0.6	-6.5	3.3
CCCC(c1nnnn1CCC(C)C)N1CCC(C(N)=O)CC1 (stereo not given)	-0.1	14.5	3.8	0.8	0.0	1.0	0.1	3.3
O=C(N/N=C/c1ccc2c(c1)OCO2)c1cccc(NC(=O)c2ccccc2Cl)c1	3.9	-15.0	6.9	0.3	.	5.1	2.6	-2.0
Cc1ccnc(NC(=O)CNC(=O)c2ccc(C)s2)c1	-11.6	1.2	-8.1	-0.1	0.0	.	-18.0	2.1
O=C(OC1CCOC1=O)c1ccc(N2CCCC2)c([N+](=O)[O-])c1 (stereo not given)	-15.2	8.5	-2.0	-0.3	5.0	-3.0	-8.3	6.7

Whole records, quoted from the list. Values in the order: T cruzi repl, Calb FLC, Beta2AR agonist, A1 inh, UCH37 inh, LANA-H2B inh, Beta cell apopt, RanGTP-Imp inh
Record of Cc1ccnc(NC(=O)CNC(=O)c2ccc(C)s2)c1 → -11.6, 1.2, -8.1, -0.1, 0.0, ., -18.0, 2.1
Record of CCN(C(=O)CSc1n[nH]c(-c2ccccc2)n1)c1c(N)n(Cc2ccccc2)c(=O)[nH]c1=O → ., ., -9.6, 0.9, 1.6, -3.5, -3.2, .

New compounds follow.
SMILES	T cruzi repl	Calb FLC	Beta2AR agonist	A1 inh	UCH37 inh	LANA-H2B inh	Beta cell apopt	RanGTP-Imp inh
COc1cccc(/C=C/C(=O)OCC(=O)c2ccc(S(=O)(=O)N3CCCCC3)cc2)c1OC	5.4	-7.4	1.4	1.2	.	-4.9	-6.0	-2.5
CCc1nnc(NC(=O)C2CCN(S(=O)(=O)c3ccc(C)cc3)CC2)s1	-4.4	-2.0	-3.5	-0.8	1.3	6.0	-7.4	-1.0
COc1ccc(CNc2ccc(S(N)(=O)=O)cc2)cc1	-5.4	5.7	0.3	0.5	1.8	3.0	2.5	?
CCOC(=O)C1CCN(C(=O)c2cc3c(=O)n4cccc(C)c4nc3s2)CC1	4.0	30.1	-6.0	-0.6	-403.3	0.1	-6.1	4.3
Cc1ccc(S(=O)(=O)c2c(N)n(CCN3CCOCC3)c3nc4ccccc4nc23)cc1C	8.0	-2.0	-14.3	2.4	-55.1	-0.9	-14.5	-0.1
Cc1ccc(NC(=O)CSCc2cc(=O)n3nc(C4CC4)sc3n2)cc1	2.9	-9.3	-3.0	-1.2	2.8	1.8	-4.5	-1.7
O=C(CCc1ccccc1)N/N=C/c1cccc(O)c1	-8.5	-2.1	7.6	-0.1	.	1.7	-3.2	-0.7
Cc1[nH]c2ccccc2c1CCNC(=O)c1c(N)no[n+]1[O-]	-6.2	-1.9	2.3	0.4	-1.2	-2.5	-2.0	1.7
COC(=O)N/N=C/c1ccc(-c2ccc(Cl)c(Cl)c2)o1	1.7	5.1	i	-0.6	.	-1.5	-7.2	-1.7
CCc1ccc(N2CC(C(=O)OCC(=O)NC3CC3)CC2=O)cc1 (stereo not given)	.	.	-6.0	-0.3	1.3	8.0	-1.0	.
CC(C)(C)N(NC(=O)Nc1ccc(Cl)cc1)C(=O)c1ccccc1	-1.1	-0.9	-2.8	-1.1	2.6	0.6	-1.2	1.3
CCOc1ccccc1N1C(=O)c2ccc(S(=O)(=O)c3ccc(C(=O)O)cc3)cc2C1=O	-9.0	16.7	1.2	-0.4	5.2	4.6	-6.9	1.7
COc1cc(C(=O)Nc2ccccc2C(=O)Nc2ccccn2)cc(OC)c1OC	5.5	9.3	-1.4	0.4	-8.4	-1.9	7.8	5.3
COc1ccc(/C=C/C(=O)NCc2cccnc2)cc1	3.7	-3.0	-6.7	-0.8	5.3	-0.7	1.5	2.0
CCN(CC)S(=O)(=O)c1ccc(NC(=O)COC(=O)CNS(=O)(=O)/C=C/c2ccccc2)cc1	-3.4	3.2	1.1	-0.5	3.8	-1.4	.	8.1
CCCn1c(=O)c(C(=O)Nc2ccccc2)c(O)c2ccccc21	8.0	1.4	-7.0	?	-7.2	0.0	0.5	2.6
CCN(CC(=O)Nc1c(F)cccc1F)C(=O)c1ccc2c(c1)NC(=O)C(C)S2 (stereo not given)	-4.4	2.0	-6.0	0.6	3.7	-0.8	-5.8	.
C=CCNC(=O)c1c(Cl)nc(C)c([N+](=O)[O-])c1C	7.2	15.8	5.9	-0.1	.	0.3	-2.8	-1.5
Cc1cccc(NCc2nc(SCC(N)=O)n[nH]2)c1	-10.4	-1.3	-3.4	0.7	0.5	1.1	-6.5	2.5
COC(=O)c1nnc(-c2ccccc2)nc1OC	-20.7	-1.1	-7.4	-0.2	2.5	2.4	6.2	?
Cc1[nH]c2ccccc2c1C(=O)C(=O)NCCc1ccc(S(N)(=O)=O)cc1	1.0	-4.4	-1.8	0.3	5.7	-0.1	0.2	-0.7
COCc1ccc(C(=O)N2CCCC(N3CCN(c4ccc(F)cc4)CC3)C2)o1 (stereo not given)	-0.6	-1.7	4.6	1.8	1.1	-6.1	-6.4	0.8
CCCc1c(C(=O)N/N=C/c2c(OC)ccc3ccccc23)nnn1-c1nonc1N	-5.8	.	-10.2	1.3	.	-2.6	11.3	3.9
COC(=O)c1ccc(C)c(NS(=O)(=O)c2ccc(OC)cc2)c1	-16.6	2.4	5.7	0.5	2.7	-10.1	42.3	3.0
CC1(CCc2ccccc2)NC(=O)N(Cc2nnc(-c3ccccc3Br)o2)C1=O (stereo not given)	1.1	-3.5	-1.4	0.0	5.4	5.3	-8.0	-2.1
CSc1nnnn1-c1ccc(Cl)cc1	6.9	1.5	-4.8	0.1	0.0	-0.1	-2.8	-2.6
Cn1c(=O)c2c(nc(CN3CCN(C(=O)c4ccco4)CC3)n2CCCc2ccccc2)n(C)c1=O	3.9	-1.6	-14.3	1.2	3.1	5.9	0.6	-1.6
CC(C)(C)NC(=O)NC(=O)CSc1ncc(C(F)(F)F)cc1Cl	18.2	-22.4	-0.3	0.3	2.2	-6.4	3.8	-1.3
COC(=O)C1CCN(C(=O)COC(=O)c2cc(-c3cccs3)nn2-c2ccccc2)CC1	-5.9	-7.4	20.4	0.4	8.4	-4.9	-7.5	1.1
NC(=O)CNC(=O)[C@@H]1CC2(CC(c3ccc(Cl)cc3)=NO2)CN1C(=O)c1ccccc1 (stereo not given in full)	-14.0	-2.3	1.9	2.3	0.8	4.7	-1.4	3.6
Cc1ccc(C(=O)NCc2ccncc2)cc1S(=O)(=O)N1CCCCC1	8.9	-3.3	1.8	0.2	-0.9	1.2	-2.1	-1.4
CCC(C(=O)Oc1c(C(C)C)cccc1C(C)C)c1ccccc1 (stereo not given)	.	.	9.1	1.7	32.6*	6.8	3.6	.
COc1ccc(C2=NOC(C(=O)Nc3c(C)n(C)n(-c4ccccc4)c3=O)C2)cc1OC (stereo not given)	-4.5	-11.5	1.4	0.3	6.0	3.2	-3.8	2.1
CC(=O)Nc1ccc(N/C=C/C(=O)c2ccco2)cc1	-8.9	0.0	0.1	-7.8	2.3	1.6	-4.1	-13.9
O=C(O)CCCCCn1c(SCC(=O)N2CCCC2)nc2ccsc2c1=O	-11.1	-8.0	-1.4	-0.1	6.3	2.3	-5.9	3.0
COc1cc(CNCCc2ccccc2)ccc1OCC(=O)NC(C)(C)C	50.5	-8.2	-1.9	-0.2	1.5	-3.8	-8.1	9.8
Cc1ccc(CC(=O)NC2CCSC2=O)cc1 (stereo not given)	-4.2	-9.6	-4.2	0.3	-0.5	0.7	2.0	-6.6
COc1ccc(-c2cn3c(C)c(C(=O)Nc4cccc(C)n4)sc3n2)cc1	-6.8	5.4	9.7	-1.1	-4.6	-1.4	-4.3	0.6
COc1ccc(NC(C)=O)c(C)c1	-3.9	13.1	19.0	-1.5	-0.2	1.0	-6.4	0.8
COc1ccc(O)c(/C=N/N2CCOCC2)c1	-11.5	4.7	-0.7	-5.2	.	1.8	-1.5	2.3
CSc1ccccc1C(=O)Nc1cc([N+](=O)[O-])ccc1C	-7.7	0.9	2.2	1.0	2.4	2.7	-4.8	?
Cn1c(=O)oc2cc(S(=O)(=O)CCC(=O)N3CCN(c4ccccc4)CC3)ccc21	-10.3	8.1	-12.0	-0.1	2.1	3.4	-4.3	3.8
CCOC(=O)C(C)(C)Oc1ccc(Cl)cc1	.	.	-1.4	-0.2	2.2	-3.5	-1.5	.
Cn1c(=O)cc(-c2ccccc2)c2ccccc21	5.3	6.3	1.8	0.0	-4.4	3.1	0.7	-3.7
COc1ccc(F)cc1-c1nc(N)nc(N)n1	.	.	-3.9	0.8	0.8	-0.9	-10.8	.
C=CCn1c(=NC(=O)c2cc(-c3cccs3)nc3ccccc23)sc2cc(S(N)(=O)=O)ccc21	46.5	5.1	13.3	-0.9	-25.7	3.9	92.4*	8.3
CCCCNC(=O)COC(=O)c1ccc(NS(=O)(=O)c2ccc3c(c2)OCCO3)cc1	3.3	-0.9	-2.0	0.0	1.9	5.9	-5.6	2.6
CCOc1ccccc1/C=C/c1onc(C)c1S(=O)(=O)N1CCC(C(=O)NC(C)C)CC1	15.9	?	9.6	-0.7	-129.8	-0.3	0.3	-0.6
CC(=O)CCS(=O)(=O)c1ccc(C)c(C)c1	-3.9	1.7	-4.4	0.1	0.5	-6.1	-14.6	?
CC(C)N1C(=O)CCN(C=O)c2ccccc21	-1.9	-20.9	-1.2	0.6	2.9	-4.3	-0.4	.
COCCNc1nc2nonc2nc1N(C)Cc1cccc2cnccc12	3.7	-1.3	-3.0	0.3	10.0	-0.6	.	-4.2
COc1ccc(OC)c(N(C(=O)c2snc(C(N)=O)c2N)C(C(=O)NCC2CCCO2)c2ccc3ncccc3c2)c1 (stereo not given)	-3.0	10.5	-21.8	0.1	-7.2	-1.3	2.2	4.0
Cc1cc(=O)[nH]c2c1c(C)nn2-c1ccccc1	5.7	8.2	-0.8	-1.2	0.6	-0.4	-1.9	?
